gsp agonist: activates gsp, the McCune-Albright syndrome mutation | gsp mutant cells, cAMP HTRF, 30 min; control for the full effect not named in the record | Potency, µM (highest dose often 76.9 µM), inactives show at the top dose activation (cAMP increase), actives largely listed as activators | hit rate 0.13% among 340,000 | AID 624287; active = well fitted activation curve with a large enough effect; inconclusive = small, poorly fitted or top-dose-only effect, or another doubt; inactive = no such curve, though single readings can be large or run the other way; cell line not stated here;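 note: phosphodiesterase inhibitor Ro 20-1724 added with compounds to block cAMP breakdown; potency is the fitted concentration of half-maximal effect; nearly all actives have a fitted effect of over 60% in size; about a fifth of the inactives were tested at one dose only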
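Cells in DMEM/10% FBS with G418 were pretreated with compounds in DMSO plus […] (300 uM stock) for 30 min at 37C. cAMP was measured by HTRF (cAMP-d2 plus anti-cAMP antibody-K) after 30 min at room temperature.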
gsp antagonist: antagonizes gsp, the McCune-Albright syndrome mutation; gsp-mutant cells, cAMP HTRF, 30 min; control for the full effect not named in the record; Potency, µM (series often up to 76.9 µM), for the others: top-dose activity change, negative = inhibition, usual class: inhibitors; hit rate 0.4% among 340,000; AID 624288; active = falling curve of any shape with a large fitted effect; inconclusive = falling curve, mostly with a smaller effect; inactive = flat or rising curve; cell line not stated here;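 note: intracellular cAMP measured with PDE inhibitor Ro 20-1724 present during compound exposure; potency is the fitted concentration of half-maximal effect; % is set by controls: 0 for no effect and ±100 for the full control effect; nearly all actives have a fitted effect of over 65% in size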
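HTRF cAMP measurement after 30 min RT detection following 30 min, 37C compound treatment alongside […] (added as 300 uM solution) in G418-selected cells seeded at 2000/well and grown 16–24 h.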
TRPV1 potentiator: enhances activation of the human vanilloid receptor TRPV1 | Q8NER1 | TRPV1-expressing cells, Fluo-8 calcium influx, capsaicin EC20 potentiation; host cell line not named in the record; control for the full effect not named in the record | potentiation, % at 8.33 µM | hit rate 0.02% among 320,000 | AID 540277; active means potentiation above 80%; inconclusive means 30% to 80%; inactive means below 30%; note: 0% is about no effect
Target sequence (Q8NER1 whole entry, looked up): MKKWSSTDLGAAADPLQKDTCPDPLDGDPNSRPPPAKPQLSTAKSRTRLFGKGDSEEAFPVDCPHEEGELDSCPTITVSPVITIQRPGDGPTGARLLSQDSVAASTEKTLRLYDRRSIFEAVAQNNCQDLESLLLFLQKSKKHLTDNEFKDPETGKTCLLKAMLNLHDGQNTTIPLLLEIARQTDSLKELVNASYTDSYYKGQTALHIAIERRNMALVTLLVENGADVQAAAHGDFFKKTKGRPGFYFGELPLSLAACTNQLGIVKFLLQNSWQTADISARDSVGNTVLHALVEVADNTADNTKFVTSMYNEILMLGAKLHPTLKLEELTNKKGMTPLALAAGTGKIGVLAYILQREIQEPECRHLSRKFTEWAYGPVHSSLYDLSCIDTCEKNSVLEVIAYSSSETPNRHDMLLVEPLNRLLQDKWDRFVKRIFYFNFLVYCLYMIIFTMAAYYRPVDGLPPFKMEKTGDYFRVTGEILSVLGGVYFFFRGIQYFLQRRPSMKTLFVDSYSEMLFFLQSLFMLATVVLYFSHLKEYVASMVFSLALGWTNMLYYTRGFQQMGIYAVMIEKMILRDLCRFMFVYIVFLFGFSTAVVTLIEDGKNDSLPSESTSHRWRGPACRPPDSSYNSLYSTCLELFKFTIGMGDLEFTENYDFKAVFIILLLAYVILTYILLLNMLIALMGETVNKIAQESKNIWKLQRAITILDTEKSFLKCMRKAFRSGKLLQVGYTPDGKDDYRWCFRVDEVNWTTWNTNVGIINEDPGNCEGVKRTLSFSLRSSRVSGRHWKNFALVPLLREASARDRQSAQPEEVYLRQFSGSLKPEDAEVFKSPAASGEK
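TRPV1-expressing cells were cultured overnight at 35.5C and loaded with Fluo-8 calcium dye for 40 to 90 min at room temperature. After a 10 s baseline, compound was added and calcium influx was read kinetically for 3 min (ex 480/em 520 nm).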
TRPML1 blocker: blocks the human TRPML1 channel; Q9GZU1; TRPML1-inducible cells, Ca2+ dye fluorescence, FDSS; stronger effect = lower value; inhibition of EC80 agonist-evoked calcium signal; activity change, negative = inhibition, % (concentration not given with the values); hit rate 0.02% among 390,000; AID 624415; in the data active means activity change below about -50%; inconclusive means about -30% to -50%; inactive means above about -30%;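 note: stimulus is agonist 54-4 at its EC80 concentration; % is set by controls: 0 for no effect and ±100 for the full control effect; compound concentration not given in the record; the text of the record puts the active cut at -80%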
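Tet-induced TRPML1-DL cells loaded with Ca8 no-wash calcium dye were read kinetically on FDSS. Compound addition was followed by EC80 agonist 54-4 (4 uM final); inhibition was read over 110 s.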
Menin MLL FP FL: inhibitors of human menin-MLL interaction, wild-type MLL peptide | 290,000 tested, under 10 active | FP activity change, % at 61.4 µM | Fluorescence polarization, fluorescein-MLL peptide displacement from menin | AID 1766; inconclusive = falling polarisation curve, or a change in total fluorescence; inactive = total fluorescence flat and polarisation flat or rising; no compound was filed as active; the % refers to the polarisation; negative = inhibition;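 note: % of control where 0% means no effect; inhibitors lower the polarisation; unlabelled MLL peptide was the positive control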
ClpP mod: qHTS Assay for Activators of ClpP; purified B. subtilis ClpP, FRET peptide cleavage, 20 min; Potency, µM (doses to about 57.5 µM), inactives show at the highest dose activity change, negative = active; hit rate 1.9% among 340,000; AID 651965, 2013; active = well fitted falling curve with a large enough effect; inconclusive = small, poorly fitted or top-dose-only effect; inactive = no such curve, though single readings can be large or run the other way; note: potency is the fitted concentration of half-maximal effect; the source files actives as falling curves though it sought activators and does not explain the sign; nearly all actives have a fitted effect of over 65% in size; many hits overshoot -100%
Target sequence (P80244 whole entry, looked up): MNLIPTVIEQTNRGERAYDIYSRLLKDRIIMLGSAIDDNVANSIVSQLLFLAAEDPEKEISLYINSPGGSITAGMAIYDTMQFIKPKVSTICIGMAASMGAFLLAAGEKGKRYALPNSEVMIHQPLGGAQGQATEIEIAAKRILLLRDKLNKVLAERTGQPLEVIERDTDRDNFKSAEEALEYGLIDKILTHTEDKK
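Buffer: 100 mM Tris/HCl pH8, 100 mM KCl, 0.05% low protease BSA, 2.5% glycerol, 0.01% Tween-20. ClpP 10 microg/mL final; 20 min RT; delta FRET normalized to ADEP and DMSO controls.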
Sfp PPTase inh: blocks B. subtilis Sfp PPTase activity; Q9F4F7; hit rate 3.5% among 310,000; Potency, µM, for the others: max response, negative = inhibition, most hits filed as inhibitors; Biochemical Sfp PPTase activity, qHTS; AID 1490; active = well fitted inhibition curve with a large enough effect; inconclusive = small, poorly fitted or top-dose-only effect, or another doubt; inactive = no such curve, though single readings can be large or run the other way;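 note: the enzyme is Sfp with the accession as filed and its product quenches rhodamine fluorescence; potency is the fitted concentration of half-maximal effect; 0% = enzyme reaction without inhibitor and -100% = no enzyme wells; top concentration of the series not given in the record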
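After 15 min at room temperature with compound, 15 nM Sfp received 5 uM rhodamine-CoA plus 12.5 uM BHQ-2-ybbR (50 mM Hepes pH 7.6, 10 mM MgCl2). Rate came from the fluorescence difference over 30 min, ex 525/em 598 nm.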
* = called active by the depositor; ? = inconclusive; . = not tested or not shown; & = joins results of further samples; [ ] = remark or other dose.

SMILES	gsp agonist	gsp antagonist	TRPV1 potentiator	TRPML1 blocker	Menin MLL FP FL	ClpP mod	Sfp PPTase inh
CCCCCCCC[n+]1cccc(C(=O)N2c3c(nc(N)[nH]c3=O)NC(C)C2C)c1 (centres undefined)	1.8%[15.4 µM]	12.5%	4.6	17.4	.	0.6%	11.2%
CCOC(=O)CC(=O)CSc1ncnc2c1nnn2-c1ccc(F)cc1	9.5%[15.4 µM]	-7.6%	22.5	-14.0	10.4	.	2.4%
CCOC(=O)c1cc(C)nnc1C(=O)OCC	?	.	.	-16.0	.	0.7%	.
Cc1noc(C)c1COc1ccc(C(=O)OCC(=O)Nc2c(C)n(C)n(-c3ccccc3)c2=O)cc1	?	6.1%	-3.9	-2.8	-0.5	-4.5%	16.9%
O=C1CNC(=O)/C1=C\N1CCCCC1	-50.3%[inhibitor]	7.5%	-0.4	-10.3	0.9	0.2%	-10.0%
COc1cccc2cc(/C(=N/O)c3ccccc3)oc12	0.6%	-11.6%	-14.6	6.2	1.4	-15.3%	1.6%
Cc1c(Cl)cnc(NC(=O)COC(=O)CNC(=O)c2ccccc2)c1Cl	9.5%	-0.8%	.	8.9	.	-0.7%	.
CCc1ccccc1NC(=O)C1CCCN(c2ncnc3onc(-c4ccc(F)cc4)c23)C1 (centres undefined)	-21.9%	-18.0%	9.8	16.1	-1.8	1.7%	14.6%
CCOC(=O)c1ccccc1N1C(=O)C2Sc3[nH]c(=O)sc3C(/C=C/c3ccccc3)C2C1=O (centres undefined)	-0.5%	-22.9%	-5.7	-0.8	?	-3.6%	12.6µM*
O=C(O)C1CCCN(C(=O)c2cccc3ccccc23)C1 (centres undefined)	-10.7%	-2.3%	5.4	7.3	0.2	.	11.0%
O=C(CSc1nc2ccccc2o1)Nc1ccc(Cl)cc1	-49.5%[inhibitor]	-2.1%	-3.9	7.2	0.8	-1.7%	18.9%
COc1ccc(CC2(C)OC(c3ccc(C)c([N+](=O)[O-])c3)=NN2C(C)=O)cc1 (centres undefined)	-3.7%[15.4 µM]	-40.9%	.	26.0	-0.7	0.9%	-19.6%
CCCCn1c(N)c(N(CC(C)C)C(=O)c2ccc(-c3ccc([N+](=O)[O-])cc3)o2)c(=O)[nH]c1=O	-13.9%	-14.1%	0.2	-4.5	.	-1.1%	.
Cn1c(N)cc(=O)n(Cc2ccccc2)c1=O	.	4.5%	16.5	-12.3	-1.9&3.2	-0.5%	2.7%&12.3%
COc1ccc(CCNC(=O)Cc2cc(OC)c(OC)cc2Br)cc1OC	-30.2%	10.4%	-8.2	-5.8	2.1	.	19.6%

Three records picked at random from those above:
SMILES	gsp agonist	gsp antagonist	TRPV1 potentiator	TRPML1 blocker	Menin MLL FP FL	ClpP mod	Sfp PPTase inh
CCOC(=O)c1cc(C)nnc1C(=O)OCC	?	.	.	-16.0	.	0.7%	.
CCOC(=O)c1ccccc1N1C(=O)C2Sc3[nH]c(=O)sc3C(/C=C/c3ccccc3)C2C1=O (centres undefined)	-0.5%	-22.9%	-5.7	-0.8	?	-3.6%	12.6µM*
O=C1CNC(=O)/C1=C\N1CCCCC1	-50.3%[inhibitor]	7.5%	-0.4	-10.3	0.9	0.2%	-10.0%

The list goes on.
SMILES	gsp agonist	gsp antagonist	TRPV1 potentiator	TRPML1 blocker	Menin MLL FP FL	ClpP mod	Sfp PPTase inh
CCOC(=O)C1CCN(C(=O)C2CCN(S(=O)(=O)c3ccc4c(c3)CC(C)N4C(C)=O)CC2)CC1 (centres undefined)	-15.2%	-8.6%	-4.9	-20.4	-2.2	-1.3%	0.3%
CCC(c1ccc(O)c(O)c1)C(CC)c1ccc(O)c(O)c1 (centres undefined)	10.6%	-7.0%	.	-4.8	.	.	.
CC1CC1C(=O)OCC(=O)Nc1cccc([N+](=O)[O-])c1 (centres undefined)	-6.1%[15.4 µM]	9.7%	-2.6	13.9	2.5	-1.7%	6.9%
COC(=O)CN1C(c2ccccc2)=Nc2ccc(Cl)cc2C1c1ccccc1 (centres undefined)	-0.8%	-27.5%	-11.6	-22.2	1.6	-6.1%	-32.5%
CC(=O)N/C(=C/c1ccc2c(c1)OCO2)C(=O)O	-2.0%[15.4 µM]	6.4%	-8.9	-0.8	4.1	.	16.2%
C/C(=N\S(=O)(=O)c1ccc(C)cc1)NC(=S)Nc1ccccc1	-11.2%	-4.1%	3.3	18.7	1.9	0.9%	8.1%
Cc1onc(-c2ccccc2)c1C(=O)c1c[nH]c(C(=O)NCc2ccccn2)c1	-3.5%[15.4 µM]	-1.5%	5.6	37.1	-5.9	.	17.3%
O=C(NCC1CCCO1)C(c1cccs1)N(C(=O)c1ccc(-c2ccccc2)[nH]1)C1CCCC1 (centres undefined)	-0.9%	-28.7%	21.2	-0.4	4.2	-1.3%	-4.7%
Cc1cc2c(s1)c1cnn(CC(=O)NCCc3ccccc3)c(=O)c1n2C	-0.5%	-4.0%	1.6	?	2.8	-13.1%&-12.4%	-18.7%
C=CCNC(=S)N(C1CCCCC1)C1CCCCC1	-23.2%[15.4 µM]	-30.5%	8.1	-6.7	1.5	.	20.9%
C/C(=N\NC(=O)c1cccc2ccccc12)c1cccnc1	-2.3%	-7.2%	-5.0	6.4	1.1	-0.5%	8.7%
COc1ccccc1-c1ccc(C(=O)O)o1	?	-10.4%	0.6	11.0	6.0	29.9%	11.0%&-20.8%
CCOc1ccccc1C(=O)NCC(=O)NCC(c1ccc(OC)cc1)N1CCOCC1 (centres undefined)	21.6%[15.4 µM]	8.5%	7.6	-0.7	.	.	.
COc1ccc(C(C)=O)cc1COC(=O)CSCC(=O)Nc1ccc(C)cc1	0.8%	1.3%	6.9	-6.0	.	1.4%	.
CCCCc1cc(=O)oc2cc(C)cc(OCC(=O)NC(Cc3ccc(Cl)cc3)C(=O)O)c12 (centres undefined)	.	1.5%	-0.4	.	3.9	4.5%	20.2%

The closing 3 records of the part before are carried over, then new ones follow:
SMILES	gsp agonist	gsp antagonist	TRPV1 potentiator	TRPML1 blocker	Menin MLL FP FL	ClpP mod	Sfp PPTase inh
CCOc1ccccc1C(=O)NCC(=O)NCC(c1ccc(OC)cc1)N1CCOCC1 (centres undefined)	21.6%[15.4 µM]	8.5%	7.6	-0.7	.	.	.
COc1ccc(C(C)=O)cc1COC(=O)CSCC(=O)Nc1ccc(C)cc1	0.8%	1.3%	6.9	-6.0	.	1.4%	.
CCCCc1cc(=O)oc2cc(C)cc(OCC(=O)NC(Cc3ccc(Cl)cc3)C(=O)O)c12 (centres undefined)	.	1.5%	-0.4	.	3.9	4.5%	20.2%
COC(=O)CCN(C(=O)c1ccc(N2CCCCC2)c([N+](=O)[O-])c1)c1ccccn1	-1.4%	-11.9%	5.3	-18.4	1.9	.	12.0%
Cc1onc(C(=O)NCc2ccccn2)c1[N+](=O)[O-]	-12.6%[15.4 µM]	14.7%	3.2	16.1	-1.5	.	5.8%
CCOc1cc(NS(=O)(=O)c2ccc(Cl)cc2)c(OCC)cc1NC(=O)CC(C)C	2.6%	-25.2%	4.5	-3.1	1.9	-0.9%	20.1%
Clc1ccc(-c2nnc(NCc3ccccc3)c3ccccc23)cc1	3.5%[15.4 µM]	?	-0.1	0.1	7.1	1.2%	-1.3%
O=C1CCCN1CC(O)CS(=O)(=O)Cc1ccccc1Cl (centres undefined)	9.0%	10.8%	-3.8	14.2	-7.0	.	-1.6%
CC(=O)c1c(O)cc(=O)n(-c2ccccc2)c1-c1ccc(Cl)cc1	6.3%[15.4 µM]	-5.0%	5.1	-18.9	1.2	1.3%	4.3%
Cc1ccc(S(=O)(=O)N2CCC(C(=O)OC(C)C(=O)NC(N)=O)CC2)cc1C (centres undefined)	-5.5%	0.9%	0.9	-13.2	3.3	-0.8%	18.8%
CCC(C(N)=O)N1C(=O)C2C3CCC(C3)C2C1=O (centres undefined)	-12.6%	.	.	2.1	.	0.3%	.
CCOC(=O)N1CCN(S(=O)(=O)c2ccc3c(c2)CC(C)N3C(C)=O)CC1 (centres undefined)	-12.6%	0.7%	19.4	0.3	.	-1.0%	7.8%
COc1ccc(C)cc1NC(=O)C(Sc1nncn1C)c1ccccc1 (centres undefined)	-9.7%	0.7%	4.9	-14.5	-6.3	-0.5%	11.1%
COc1ccc(-n2ccnc2CN2CCN(C3CCCC3)C(CCO)C2)cc1 (centres undefined)	4.6%	3.9%	28.1	13.6	5.0	1.3%	-2.6%
Cc1ccccc1C(=O)N/N=C1/SCC(=O)N1Cc1ccc2c(c1)OCO2	7.2%	1.1%	-0.9	5.9	-1.4	-2.2%	9.9%
COc1ccc2cc(/C=C3\SC(=S)NC3=O)c(N3CCOCC3)nc2c1	24.3%	35.5µM*	13.3	-12.0	?	-1.0%	-8.3%
COC(=O)CSc1nnc(C)n1-c1cccc(OC)c1	15.5%	13.0%	-0.6	20.5	2.0	-1.7%	13.3%
Cc1cc(C)cc(NCc2cc3c(cc2[N+](=O)[O-])OCO3)c1	-8.9%	-1.9%	5.9	-7.2	2.1	-16.4%	-10.3%
CC1CC=CC2C1C(=O)N(Cc1ccccc1)C2c1ccc(-c2ccc(F)cc2)cc1F (centres undefined)	.	.	.	65.7	-0.7	.	?
Cc1cc(C)cc(N2CC34C=CC(O3)C(C(=O)OCC(=O)NCc3ccco3)C4C2=O)c1 (centres undefined)	-0.6%	4.1%	15.5	6.1	2.0	3.2%	7.1%
COC(=O)[C@@]12CCCCN1[C@H](c1ccc(-c3cc(C(C)=O)cs3)cc1)[C@H]1C(=O)N(C)C(=O)[C@H]12	-10.0%	?	3.6	-12.7	.	-18.1%	.

Screens (PubChem BioAssay)
